# ALR inh = inhibitors of human ALR sulfhydryl oxidase, primary screen, biochemical, H2O2 detection, HRP-luminol luminescence, single point; purified ALR, DTT oxidation; inhibition, % (test concentration not listed); AID 485317, 2010; FAD-linked sulfhydryl oxidase ALR (Homo sapiens), P55789; 3.8% of 290,000 active;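 active = mean and each replicate at 75% or more; inconclusive = only one of the two met; inactive = neither met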;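 note: stock transfer was 7.5 nL into about 7.5 µL; 0% = neutral wells and 100% = wells with inactivated enzyme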
# Target sequence (P55789 whole entry, looked up): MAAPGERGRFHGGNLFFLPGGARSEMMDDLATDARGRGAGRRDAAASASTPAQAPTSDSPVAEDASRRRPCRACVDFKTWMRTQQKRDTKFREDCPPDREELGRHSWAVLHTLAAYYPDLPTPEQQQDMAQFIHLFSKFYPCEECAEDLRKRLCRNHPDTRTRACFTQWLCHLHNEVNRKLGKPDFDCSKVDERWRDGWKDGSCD
# T cruzi repl = inhibitors of intracellular T. cruzi growth, primary screen, luminescence, NIH3T3 host cells; T. cruzi beta-gal in NIH3T3, 90 h; inhibition, % (no concentration beside the values); 1.4% of 300,000 active; AID 1885, 2009;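 active = mean inhibition across valid replicates above about 55%, limit read from the data; inconclusive = mean below that limit but half or more replicates reach it; inactive = mean below it, under half of replicates reach it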;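 note: signal also drops with host cell toxicity which is not excluded here; 0% = plate median of DMSO wells and 100% = zero luminescence signal; higher percent means less beta-gal luminescence so fewer parasites; stock transfer was 50 nL into about 50 µL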
# Calb FLC = C. albicans growth inhibition with fluconazole, primary screen, CaCi-2 strain, Alamar Blue fluorescence. C. albicans CaCi-2 (fluconazole-resistant clinical isolate) + fluconazole, 48 h. growth inhibition, % (no concentration beside the values). 0.57% of 300,000 active;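 active = most replicates above 75%; inconclusive = exactly half above 75%; inactive = most below 75%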;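 note: all wells also contain fluconazole at 8 µg/ml as a sub-toxic cotreatment; 0% = median of DMSO wells and 100% = median of geldanamycin control wells; wells of about 8 µL received 7.5 nL stock; the first replicate is given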
# Ecoli rRNA inh = reduced GFP signal of wild-type E. coli, primary screen, bacterial rRNA inhibitor project, GFP/RFP fluorescence, OD600, single point. E. coli WT GFP vs humanized-ribosome RFP mutants, 24 h; hits give low values; DMSO median 0, no signal -100. GFP signal change (wild-type ribosome), % (no concentration beside the values). 1.6% of 350,000 active;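 active = significant combined selectivity score with lowered wild-type GFP, culture density cut under 30%, mutant RFP and density less affected; inactive = any of these conditions unmet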; note: one replicate is shown; some compounds called inactive have numbers as strong as hits
# RanGTP-Impb inh = inhibitors of RanGTP-importin-beta interaction, primary screen, biochemical, FRET, CFP-Ran, YFP-importin-beta, homogeneous; 1.1% of 300,000 active; cell-free CFP-Ran/YFP-importin-beta FRET ratio; inhibition, % (concentration not given with the values);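 active = most replicates above 15%; inconclusive = exactly half above 15%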;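 note: 0% = DMSO wells and 100% = Ran loaded with GDP instead of GTP; wells of about 40 µL received 100 nL stock; the first replicate is given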
# AF4-AF9 inh = inhibitors of AF4 peptide binding to AF9, primary screen, biochemical, AlphaScreen, biotin-AF4 peptide, FLAG-AF9, single point; Protein AF-9 (Homo sapiens), P42568; 0.47% of 350,000 active; AID 651704, 2012; inhibition, % at 10 µM;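 active = every replicate reaching a set inhibition limit, whatever the replicate mean, cut at about 25% in these data; inconclusive = mean inhibition reaches that limit but some replicates miss it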;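 note: 0% = plate neutral control median and 100% = total signal loss; the record names both 10 and 1 µM as test concentration; the first replicate is given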
# Beta apoptosis = inhibitors of cytokine-induced beta cell apoptosis, primary screen, luminescence | INS-1E cytokine-induced death, ATP luminescence, 48 h; percent of positive-control rescue, neutral wells zero | protection from apoptosis, % (concentration not given with the values) | 0.8% of 300,000 active | AID 435005, 2010;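 active = all replicates at 75% or more, or half of them and the mean; inconclusive = half reach 75% but not the mean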;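 note: 0% = cytokine-treated negative control wells and 100% = positive control rescue; higher means more ATP so stronger rescue from cytokine killing; wells of about 40 µL received 100 nL stock; the first replicate is given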
# FGF22 binding = binders of human FGF22 protein, primary screen, FGF22 synaptogenesis inhibitor project, biophysical, thermal shift, single point | recombinant FGF22 thermal shift, SYPRO orange fluorescence; percent of sucrose octasulfate shift, DMSO zero | calls only at 9.99 µM | 1.5% of 340,000 active | AID 651658, 2012;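 active = melting point raised past a set limit in the mean and every replicate; inconclusive = no clear call; three in four hits are not shown here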
# Target sequence (Q9HCT0 whole entry, looked up): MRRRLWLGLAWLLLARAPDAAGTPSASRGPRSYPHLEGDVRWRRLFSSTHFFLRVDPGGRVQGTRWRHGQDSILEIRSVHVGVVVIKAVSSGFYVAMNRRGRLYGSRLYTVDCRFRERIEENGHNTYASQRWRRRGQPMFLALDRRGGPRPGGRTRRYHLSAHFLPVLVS
# Ecoli rRNA inh OD600 = also measured in Ecoli rRNA inh; calls as there; OD600 change, %; measured here: OD600 growth;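 optical density of the mix in the first replicate; 0 = DMSO median and -100 = no signal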
# Ecoli rRNA inh RFP = recorded beside Ecoli rRNA inh, whose call it bears; RFP signal change, %; measured here: RFP humanized mutant strains;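 first replicate; 0 = DMSO median and -100 = no signal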
# * hit, by the source's call; i = inactive; u = inconclusive; x = no result given.
# Short forms: A = ALR inh; B = T cruzi repl; C = Calb FLC; D = Ecoli rRNA inh; E = Ecoli rRNA inh OD600; F = Ecoli rRNA inh RFP; G = RanGTP-Impb inh; H = AF4-AF9 inh; I = Beta apoptosis; J = FGF22 binding
CC1CC(C)CN(S(=O)(=O)c2ccc(C(=O)NCc3ccco3)cc2)C1 (stereo not given)
  A: x	B: 11	C: 13	D: 2	E: -1	F: 2.5	G: -3.1	H: -0.4	I: -2	J: i

CCOC(=O)c1c(-c2ccc(C)cc2C)csc1NC(=O)CSc1nnnn1C
  A: -16	B: 25	C: 4	D: -2	E: -29	F: 12	G: 8.2	H: x	I: 5	J: x

COC(=O)CNS(=O)(=O)c1ccc(OC)cc1
  A: -9	B: -13	C: -5	D: x	E: x	F: x	G: -1.3	H: x	I: 4	J: x

CCOC(=O)N1CCN(C(=O)c2cccc(S(=O)(=O)Nc3ccc(OC)cc3)c2)CC1
  A: -5	B: -1	C: 5	D: 7	E: 5	F: -1.2	G: -0.3	H: 3.3	I: 5	J: i

NC(=O)c1ccc(NC(=O)COC(=O)C2(c3cccc(F)c3)CCCC2)cc1
  A: -3	B: -2	C: -12	D: -32	E: -43	F: -4.3	G: -3.5	H: -1.3	I: 9	J: i

CC(CNC(=O)c1ccc(OC2CCN(Cc3ccccn3)CC2)cc1)Oc1cccnc1 (stereo not given)
  A: -12	B: 11	C: 4	D: 13	E: 10	F: 4.1	G: 2.9	H: -4.2	I: 100*	J: i

COc1ccc(-c2cc3nc(-c4ccccc4)cc(N4CCCC(O)C4)n3n2)cc1 (stereo not given)
  A: -2	B: u	C: -10	D: 2	E: 2	F: -0.6	G: 2.8	H: -15	I: 18	J: i

Cc1ccc(CNC(=O)C2CCCN(Cc3cnn(-c4ccccc4)c3-n3cccc3)C2)cc1 (stereo not given)
  A: -22	B: u	C: -20	D: x	E: x	F: x	G: 7.8	H: x	I: 4	J: x

C/C(=C/CCC(C)[C@H]1CC[C@@]2(C)C3=C(CC[C@]12C)[C@@]1(C)CCC(=O)C(C)(C)[C@@H]1CC3)C(=O)O (stereo not given in full)
  A: -1	B: 12	C: -7	D: 2	E: -6	F: -10.0	G: 1.4	H: -7.2	I: 1	J: i

CCCn1c(=O)n(C)c(=O)c2c(SCC(=O)NC34CC5CC(CC(C5)C3)C4)nc(CC(C)C)nc21
  A: -1	B: 69*	C: -5	D: 1	E: 4	F: -0.7	G: 2.9	H: -1.4	I: -1	J: i

CCc1sc(C(=O)Nc2nccs2)cc1C
  A: -3	B: 12	C: 12	D: -6	E: -19	F: -1.6	G: -1.1	H: 1.5	I: 1	J: i

CN(CCO)CC(O)CN(c1ccccc1)c1ccccc1 (stereo not given)
  A: 99*	B: -5	C: -7	D: 8	E: -1	F: 2.9	G: 1.4	H: x	I: 6	J: i

CCCCn1c(SCC(=O)c2ccc(OCC)cc2)nc2cc(S(N)(=O)=O)ccc21
  A: 10	B: 8	C: 2	D: x	E: x	F: x	G: -6.8	H: x	I: -2	J: x

COc1ccc(Br)c(C(=O)Nc2ccc(F)cc2)c1
  A: -3	B: -6	C: -2	D: 0	E: -3	F: 1.0	G: -3.5	H: -0.4	I: x	J: i

COc1ccc(C(CCN2CCCC2)c2c(O)cc(OC)cc2OC)cc1 (stereo not given)
  A: 6	B: 4	C: -17	D: x	E: x	F: x	G: 7.7	H: x	I: -5	J: x

CCN(CC(=O)NCc1ccc(Cl)cc1)C(=O)CSCC(=O)Nc1ccc(OC)cc1
  A: -3	B: -7	C: 4	D: -8	E: -6	F: 0.5	G: -5.0	H: 2.3	I: 3	J: i

CCOc1cc(CNc2cccc3[nH]c(C)nc23)ccc1OC
  A: 98*	B: 8	C: 2	D: 9	E: 5	F: -3.2	G: 1.0	H: 30*	I: -3	J: i

COc1ccc(/C=N/NC(=O)c2nc(Cl)c(Cl)c(N)c2Cl)cc1COc1ccccc1F
  A: -6	B: 15	C: 16	D: x	E: x	F: x	G: 6.9	H: x	I: 6	J: x

CCCc1ccc(C(=O)NNc2cc(Cl)ccc2Cl)cc1
  A: -2	B: 21	C: 2	D: 6	E: 2	F: -2.0	G: 2.7	H: -0.9	I: 42	J: x

COc1ccc(N2C(=O)CC(N3CCN(c4ccc(S(=O)(=O)N5CCCC5)cc4)CC3)C2=O)cc1 (stereo not given)
  A: -9	B: -13	C: -9	D: x	E: x	F: x	G: 5.0	H: x	I: -1	J: x

O=C(COC(=O)CNC(=O)c1ccco1)Nc1ncc(Cl)cc1Cl
  A: -4	B: x	C: x	D: -2	E: 2	F: -0.5	G: x	H: -0.7	I: 5	J: i

Cc1ccc(C)c(NC(=O)C2CCCC2)c1
  A: -6	B: -10	C: 1	D: 14	E: -4	F: -0.5	G: -0.4	H: 3.3	I: -12	J: i

CCOC(=O)CNC(=S)N(Cc1ccc(C)cc1)Cc1ccc(C)o1
  A: -2	B: 6	C: -17	D: x	E: x	F: x	G: -4.1	H: x	I: x	J: x

COc1ccc(C(=O)c2c3ccc([N+](=O)[O-])cc3[n+]([O-])n2CCCN)cc1
  A: -51	B: 36	C: 30	D: 0	E: -2	F: -1.1	G: -3.3	H: 7.4	I: 71	J: i

CC(C)(c1ccccc1)c1ccc(OCCCN2CCNCC2)cc1
  A: -51	B: 64*	C: -2	D: -16	E: -13	F: 1.1	G: 5.6	H: 18	I: 9	J: i

CCc1ccc(NC(=O)CS(=O)CC(=O)NC(C)CCc2ccco2)cc1 (stereo not given)
  A: -11	B: -11	C: 7	D: x	E: x	F: x	G: -3.5	H: x	I: 2	J: x

Cn1cc(/C=C(\NC(=O)c2ccccc2)C(=O)NCCCN2CCOCC2)c2ccccc21
  A: 31	B: -6	C: 3	D: 9	E: 15	F: 0.8	G: -0.9	H: 0.9	I: -3	J: i

CC1CCCN(S(=O)(=O)c2ccc(-c3ccc(=O)[nH]n3)o2)C1 (stereo not given)
  A: 2	B: 0	C: 17	D: 5	E: 10	F: -1.1	G: 6.3	H: -0.6	I: -12	J: i

CC(Sc1ccc(Cl)cc1)C(=O)Nc1ccccc1C(=O)N1CCOCC1 (stereo not given)
  A: -9	B: -18	C: 21	D: x	E: x	F: x	G: -3.8	H: x	I: -3	J: x

# Structures above with a furan ring, fused or not (five):
# Short forms: A = ALR inh; B = T cruzi repl; C = Calb FLC; D = Ecoli rRNA inh; E = Ecoli rRNA inh OD600; F = Ecoli rRNA inh RFP; G = RanGTP-Impb inh; H = AF4-AF9 inh; I = Beta apoptosis; J = FGF22 binding
CC1CC(C)CN(S(=O)(=O)c2ccc(C(=O)NCc3ccco3)cc2)C1 (stereo not given)
  A: x	B: 11	C: 13	D: 2	E: -1	F: 2.5	G: -3.1	H: -0.4	I: -2	J: i

O=C(COC(=O)CNC(=O)c1ccco1)Nc1ncc(Cl)cc1Cl
  A: -4	B: x	C: x	D: -2	E: 2	F: -0.5	G: x	H: -0.7	I: 5	J: i

CCOC(=O)CNC(=S)N(Cc1ccc(C)cc1)Cc1ccc(C)o1
  A: -2	B: 6	C: -17	D: x	E: x	F: x	G: -4.1	H: x	I: x	J: x

CCc1ccc(NC(=O)CS(=O)CC(=O)NC(C)CCc2ccco2)cc1 (stereo not given)
  A: -11	B: -11	C: 7	D: x	E: x	F: x	G: -3.5	H: x	I: 2	J: x

CC1CCCN(S(=O)(=O)c2ccc(-c3ccc(=O)[nH]n3)o2)C1 (stereo not given)
  A: 2	B: 0	C: 17	D: 5	E: 10	F: -1.1	G: 6.3	H: -0.6	I: -12	J: i

# Screening results (PubChem)

# The list is partial, so the mix of outcomes need not match the whole.
